# Yeast UUG start = yeast start codon fidelity modulation | S. cerevisiae UUG-firefly luciferase reporter, luminescence/redox ratio | activity score, % at 18.7 µM | 350,000 tested, 0.13% active;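 active = replicate mean at a twofold rise or more, about +100% in these data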;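 note: firefly luciferase made from a UUG start codon reports start codon fidelity; reporter light over untreated wells divided by growth signal over untreated wells; some hits fall short of that in this replicate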
# Rce1 inhib = yeast Ras-converting enzyme inhibition; Q03530; yeast membranes, quenched prenylated peptide cleavage fluorescence; calls only; 290,000 tested, 0.27% active;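 active = fall in fluorescence gain of 50% or more versus controls, with final raw signal at or below 3038400; inconclusive = same 50% fall but final raw signal above 3038400; inactive = fall in fluorescence gain under 50%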;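 note: plate controls were neutral control wells for no effect and wells lacking membranes for full effect; tested at 10 µM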
# eIF4H FP inh = inhibitors of RNA binding by human eIF4H | Q15056 | eIF4H fluorescence polarization binding assay | inhibition, % at 35 µM | 290,000 tested, 0.94% active;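 active = 50% or more with normal probe brightness, or confirmed in later tests; inconclusive = above 50% with abnormal brightness, or retests that disagree; inactive = below 50% or failed in later tests; about a fifth of its hits are not listed in these tables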;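 note: calls also rest on retests at 20 µM and on dose response follow-up; 0% = protein and probe with vehicle and 100% = probe without protein; strong numbers were not always called active; many hits fall short of the cut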
# Env fusion inh = HIV envelope-mediated fusion inhibition; 360,000 tested, 1.1% active; inhibition, % at 12.3 µM; HeLa-JRFL Env/CEM21 cell fusion, luciferase;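 active = mean replicate inhibition score of at least 50 and every replicate individually at or above 50; inconclusive = only one of the two criteria met; inactive = mean below 50 and not all replicates reaching 50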;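 note: 0% = plate neutral controls and 100% = maraviroc near 300 nM; one replicate is shown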
# CSC inhib = blocks cancer stem cells | cancer stem cell-like cells viability, luminescence | inhibition, % at 7.5 µM | 300,000 tested, 1.1% active;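 active = mean at 75% or more and at least half the replicates too; inconclusive = mean and replicates disagree; tested in HMLE shEcad cells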;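 note: 0% = median of negative and 100% = median of positive control wells; the first replicate is given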
# PABP polyA inh = PABP-poly(A) binding inhibition | inhibition, % at 35 µM | 290,000 tested, 1% active | PABP-poly(A) RNA binding, fluorescence polarization;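 active = 50% or more with normal probe brightness, or confirmed in later tests; inconclusive = above 50% with abnormal brightness, or retests that disagree; inactive = below 50% or failed in later tests; about a fifth of its hits are not listed in these tables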;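 note: calls also rest on retests at 20 µM and on dose response follow-up; controls were probe without protein and protein plus probe with vehicle; some compounds called inactive have numbers as strong as hits; many hits fall short of the cut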
# Target sequence (P11940 whole entry, looked up): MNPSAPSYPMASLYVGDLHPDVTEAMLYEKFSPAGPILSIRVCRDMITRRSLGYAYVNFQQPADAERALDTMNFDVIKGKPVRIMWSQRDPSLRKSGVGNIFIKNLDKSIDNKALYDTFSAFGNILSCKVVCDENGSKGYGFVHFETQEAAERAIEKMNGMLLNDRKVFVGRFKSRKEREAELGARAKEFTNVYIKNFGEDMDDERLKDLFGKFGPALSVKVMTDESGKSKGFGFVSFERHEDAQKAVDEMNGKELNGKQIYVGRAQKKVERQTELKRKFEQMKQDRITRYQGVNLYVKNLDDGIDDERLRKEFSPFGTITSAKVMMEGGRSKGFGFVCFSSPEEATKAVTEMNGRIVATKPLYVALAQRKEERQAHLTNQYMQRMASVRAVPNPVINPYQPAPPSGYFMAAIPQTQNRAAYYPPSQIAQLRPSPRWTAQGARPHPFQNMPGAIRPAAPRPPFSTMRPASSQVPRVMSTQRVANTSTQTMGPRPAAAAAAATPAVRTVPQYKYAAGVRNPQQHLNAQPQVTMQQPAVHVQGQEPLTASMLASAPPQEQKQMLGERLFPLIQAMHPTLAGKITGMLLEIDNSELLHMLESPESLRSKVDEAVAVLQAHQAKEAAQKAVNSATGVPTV
# MT1-MMP act inh = blocks activation of human MT1-MMP | HT1080 RFP-PRO-GFP cells, GFP/RFP ratio fluorescence, overnight; percent of plate control window, DMSO zero | 360,000 tested, 0.061% active | AID 651647 | GFP/RFP ratio change, % at 20 µM;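 active = GFP/RFP ratio change of at least 30% with cell ATP level not reduced by more than half and red fluorescence within 50% of control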; note: strong numbers were not always called active
#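 Material – HT1080 RFP-PRO-GFP cells · Control set – DMSO wells and RFP-L50D-GFP cells · Incubation – overnight cell settling, then overnight compound exposure, 37 °C, 5% CO2 · Compound dosing – single-point 20 µM compound, 1% DMSO · Read-out – GFP/RFP fluorescence ratio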
# eIF4H FP inh retest = further read-out of eIF4H FP inh, marked with its call; inhibition, %; compound at 20 µM; confirmation average;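 mean of two retest wells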
# PABP polyA inh retest = also measured in PABP polyA inh; calls as there; inhibition, %; compound at 20 µM; confirmation repeats;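 mean of two retest wells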
# MT1-MMP act inh RFP = second read-out of MT1-MMP act inh, no call of its own (marks repeat the call); RFP signal change, %; measured here: RFP expression control read;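 0 = vehicle wells; hits needed this value within 50% of zero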
# Numbers without * were called inactive; i = inactive; ? = inconclusive; · = no result given.
SMILES,Yeast UUG start,Rce1 inhib,eIF4H FP inh,Env fusion inh,CSC inhib,PABP polyA inh,MT1-MMP act inh,MT1-MMP act inh RFP,others
CCOC(=O)C1CCN(C(=O)Cn2ncc3c([nH]c4ccccc43)c2=O)CC1,-21,i,1,5,-6,0,2,0,
COC(=O)c1c(C(=O)OC)c2cc(C)ccn2c1Cl,-23,i,-6,·,2,2,-1,0,
Nc1nn2cc(-c3ccc(Br)cc3)nc2c2ccccc12,0,?,-17,-233,·,-24,5,2,
COc1ccc(OC)c(C(=O)NC2CCCc3c2cnn3-c2cc(C)cc(C)c2)c1 (centres undefined),-15,·,·,22,·,·,2,-5,
CC1CCCCC1NC(=O)CSc1nnc(CN2CCOCC2)n1C (centres undefined),-18,i,-7,·,-14,-11,-2,-1,
COc1ccc2oc(=Nc3ccccc3)c(-c3nc4ccccc4[nH]3)cc2c1,-16,i,-8,·,38,-3,-6,-1,
C/C(=N/Nc1nc(C)cc(C)n1)c1ccc(Br)cc1,-36,i,9,-2,-9,16,3,-6,
COC1CCCN(Cc2c(C(=O)N3CCN(C4CCCCC4)CC3)nc3ccccn23)C1 (centres undefined),-6,i,8,5,-8,15,-1,5,
CCCN1Cc2cccc(C(=O)Nc3ccc4c(c3)OCCO4)c2C1=O,-2,i,0,2,-4,0,3,4,
CCOC(=O)N1CCN(CC(O)c2ccc3cc[nH]c3c2)CC1 (centres undefined),-12,i,-15,-2,-1,-6,5,9,
O=C(COC(=O)c1ccncc1)Nc1cc(Cl)c(Cl)cc1Cl,·,·,7,·,1,-7,·,·,
COc1cccc(NC(=O)CN(C)C(=O)CC2CC3CCC2C3)c1 (centres undefined),-11,i,·,·,-5,·,5,2,
O=S(=O)(c1ccc(NC(=S)NC2CCCC2)cc1)N1CCCC1,·,i,-3,6,0,17,8,4,
COc1ccc(NC(=O)CSc2nnc(CCC(=O)O)c(=O)n2N)cc1,·,i,6,-7,-3,-5,2,3,
O=C(NCc1ccncc1)c1cc(C(=O)C2CC2)c[nH]1,·,i,-7,-1,20,7,2,4,
Cc1cc2nc(C)c3c(n2n1)CCC3,·,i,4,1,3,3,2,1,
COCCOC(=O)C1=C(C)N=C2SCCC(=O)N2C1/C=C/c1ccccc1 (centres undefined),-12,i,-2,·,9,-5,-4,-4,
O=C(CSc1nnc(CNC(=O)c2cccc(C(F)(F)F)c2)o1)NC1CCCC1,-17,i,-13,-7,-9,7,-1,2,
CCOC(=O)/C=C/c1ccccc1S(=O)(=O)NC(C)(C)C,-1,i,·,22,1,·,-1,2,
COC(=O)N/N=C/c1cn(CCOc2ccccc2)c2ccccc12,2,i,-4,-7,15,12,0,-6,
COc1ccc(CCNC(=O)CCS(=O)(=O)c2ccc3c(c2)NC(=O)CS3)cc1OC,-12,i,2,5,-4,3,-15,-1,
O=C(N/C(=C/c1ccc([N+](=O)[O-])cc1)C(=O)N1CCOCC1)c1ccco1,-18,i,-9,10,-5,7,-1,1,
CCOC(=O)c1n[nH]c(=O)c2ccccc12,-22,i,-7,-1,-12,14,3,5,
Cc1cc(C)cc(C(O)c2ncc(-c3ccccc3F)[nH]2)c1 (centres undefined),-10,·,·,-10,·,·,4,3,
CN(C)S(=O)(=O)c1ccc(NC(=S)NC(=O)Cc2ccccc2)cc1,·,i,2,14,-17,6,1,5,
CC(C)(C)CN1C(N)=NC[C@@H]1Cc1ccc(O)cc1,-11,i,-12,23,-11,6,3,4,
CC(C)C(C)(C#N)NC(=O)CSc1nc2scc(-c3ccccc3)c2c(=O)[nH]1 (centres undefined),-9,i,-10,·,·,4,-3,-5,
Cc1nn(CC(=O)N(C)C)c(C)c1S(=O)(=O)N1CCOCC1,-21,·,·,·,-12,·,2,6,
CCCCC1=CC2=CC(=O)C(C)(OC(=O)CC)C(=O)C2=CN1Cc1ccccc1 (centres undefined),6,i,36,-6,5,30,-6,3,
NC(=O)Cn1nc(C(F)(F)F)c2c1CCCC2,-5,i,-7,13,-29,6,-1,2,
O=C(CSc1nc2ncc(Br)cc2[nH]1)c1ccc([N+](=O)[O-])cc1,-20,i,-16,-4,-1,0,3,-5,
CCOC(=O)N1CCN(S(=O)(=O)c2cccc3nonc23)CC1,-6,i,6,-16,-8,6,-2,1,
CC(=O)Nc1ccc(-c2cn3cccnc3n2)cc1,·,i,-4,-91,-1,-3,2,7,
CCN(CC)CCCNC(=O)c1cc(-c2ccc(Cl)cc2)on1,-8,i,4,15,71,-5,6,3,
Cn1cccc1CNC1CCCCC1,-11,i,-5,·,·,2,0,2,
COC(=O)c1sccc1OC(C)C(C)=O (centres undefined),-17,i,5,-51,3,-7,5,4,
O=C(N/N=C/c1ccc(Br)s1)c1ccc([N+](=O)[O-])cc1,·,i,0,9,26,35,6,-1,
O=C(COC(=O)c1cccc(F)c1)NC(=O)NC1CCCC1,-11,·,·,1,·,·,1,3,
O=C(NCc1ccco1)Nc1nnc([C@H]2C[C@H](O)[C@@H](CO)O2)s1,-8,·,·,19,·,·,-3,2,
O=C(N/N=C/c1ccc(N2CCOCC2)cc1)c1ccccc1NS(=O)(=O)c1cccs1,·,i,-2,-7,8,3,2,5,
O=c1oc2ccccc2cc1-c1cn2cccnc2n1,-36,i,-4,-141,-6,-11,·,·,
O=C(NCC(c1ccco1)N1CCCC1)c1cccc(S(=O)(=O)N2CCCCC2)c1 (centres undefined),-6,·,·,9,·,·,-2,-2,
CC1CCCCN1C(=O)C12CCC(C)(C(=O)C1)C2(C)C (centres undefined),-15,i,5,·,-10,-10,0,1,
CN(C(=O)c1coc(=O)c2ccccc12)c1ccc(Br)cc1,·,i,-15,6,7,12,7,-2,
CC(=O)c1c(N)c(C#N)c(C)n1-c1ccc(Br)cc1,-14,i,-15,·,0,-1,-5,2,
O=C(c1ccc(F)cc1)N1CCC(N2CCCCCC2)CC1,-15,i,9,-14,-1,8,2,7,
O=C1Nc2ccc(C(=O)O)c(O)c2C1=O,-29,·,·,-19,·,·,2,1,
CCCCn1c(N)c(N(CCOC)C(=O)c2ccc(S(=O)(=O)N3CCCCCC3)cc2)c(=O)[nH]c1=O,-9,i,·,·,-8,·,1,4,

# Looked up by structure from the list above, 2 records:
SMILES,Yeast UUG start,Rce1 inhib,eIF4H FP inh,Env fusion inh,CSC inhib,PABP polyA inh,MT1-MMP act inh,MT1-MMP act inh RFP,others
O=c1oc2ccccc2cc1-c1cn2cccnc2n1,-36,i,-4,-141,-6,-11,·,·,
CN(C(=O)c1coc(=O)c2ccccc12)c1ccc(Br)cc1,·,i,-15,6,7,12,7,-2,

# Additional records
SMILES,Yeast UUG start,Rce1 inhib,eIF4H FP inh,Env fusion inh,CSC inhib,PABP polyA inh,MT1-MMP act inh,MT1-MMP act inh RFP,others
Cc1c(NC(=S)NC(=O)c2cc3ccccc3o2)cccc1C(=O)O,-49,i,7,-39,-6,9,-1,0,
COc1cccc(CN(C(=O)/C=C/c2ccc(Cl)cc2)C2CCS(=O)(=O)C2)c1 (centres undefined),·,i,-5,17,1,-12,1,-3,
Cc1cccc(OCC(=O)N2CCN(C(=O)Cc3ccccc3)CC2)c1,-8,i,2,·,-5,-5,4,7,
OCc1nnn(-c2ccccc2)c1CO,-13,i,6,-9,1,6,-1,2,
C[C@H](NC(=O)c1[nH]cnc1C(=O)Nc1ccccc1F)c1ccccc1,-12,·,·,-73,·,·,4,0,
CCC(CC)Nc1ccc(C(CC(N)=O)NC(=O)Cc2cccc3ccccc23)cc1[N+](=O)[O-] (centres undefined),-21,i,78,1,18,38*,12,6,eIF4H FP inh retest=42;PABP polyA inh retest=56*
Cc1ccc(NC(=S)NCc2ccc(Cl)cc2)c(C)c1,-19,i,-2,5,-1,12,4,0,
O=C(CN1C(=O)COc2ccccc21)NCCCN1CCCC1,-3,i,·,-2,-14,·,2,4,
Cc1ccc(CC(=O)NCCS(=O)c2ccc(Cl)cc2)cc1 (centres undefined),-11,i,3,·,2,0,4,5,
CCc1[nH]c(C)c(C(C)=O)c1C,416*,i,-1,-79,-3,6,-4,0,
O=C(Nc1cccc(C(F)(F)F)c1)C1CC(=O)N(CCc2ccccc2)C1 (centres undefined),-18,·,·,13,-12,·,2,0,
Cc1nc(-c2cccc(NC(=O)c3ccc(Br)o3)c2)cs1,-4,i,-7,-14,10,-12,1,1,
O=C(O)CN1C(c2ccccc2)=Nc2ccc(Br)cc2C1c1ccccc1 (centres undefined),·,i,-6,3,6,-12,-3,0,
CC(=O)NCCc1nc2cc(NC(=O)c3ccc([N+](=O)[O-])cc3)ccc2n1C,-11,i,3,-3,5,-3,4,3,
CC(C)C(O)P(=O)(OCc1ccccc1)c1ccc(N(C)C)cc1 (centres undefined),3,i,0,-41,14,2,4,1,
COc1ccc(CCn2nnnc2C(c2ccc(Cl)cc2)N2CCN(C)CC2)cc1OC (centres undefined),-8,i,-1,·,-7,5,1,-1,
COc1ccccc1NC(=O)CCNS(=O)(=O)c1ccc2c(c1)CCN2C(C)=O,5,i,0,1,-17,2,5,2,
C=CCOc1ccc(/C=C2\SC(=S)N(CCC(=O)O)C2=O)cc1,23,i,2,61*,-11,0,-5,0,
CNC(=O)Cn1nc(-c2ccc(Cl)cc2)c2ccccc2c1=O,-9,i,3,·,-11,0,-1,-2,
CS(=O)(=O)O/N=C1\CCCCC1c1ccc([N+](=O)[O-])cc1[N+](=O)[O-] (centres undefined),-6,i,-10,17,-8,-10,-10,-6,
CC1(C(=O)Nc2ccc3c(c2)OCCO3)CCN1C(=O)Cc1ccc(-c2ccccc2)cc1 (centres undefined),-16,·,·,-18,·,·,-4,-17,
COCOCCn1cc(CN2CCS(=O)(=O)N(Cc3ccc(-c4ccc(OC)c(OC)c4)cc3)C(CC(C)C)C2=O)nn1 (centres undefined),-6,·,·,1,·,·,-1,0,
CC(C)(C)C(=O)Nc1cc(S(=O)(=O)N2CCCCC2)ccc1N1CCCCC1,12,i,-5,37,27,10,-7,-10,
Cc1ccc(S(=O)(=O)Nc2c(O)c3ccccc3oc2=O)cc1,-16,i,-17,-4,-4,9,-2,2,
Cc1cc(CC(C)C)n(-c2nc3ccccc3c(=O)n2OCC(=O)N(C)C)n1,-22,i,14,·,2,11,0,5,
O=C(NCc1ccco1)c1sc2ccccc2c1Cl,6,i,4,·,5,2,-1,2,
COC(=O)C1=C(C)NC(C)=C(C(=O)OC)C1c1ccc(OC(=O)c2ccco2)cc1,7,i,-6,·,·,-6,4,5,
CSCCCNC(=S)N1CCN(c2ccc(C(C)=O)cc2)CC1,-30,i,-14,-6,-10,-7,4,0,
COc1ccc(C(=O)C2CCCN(C(=O)Cn3ccc(C)n3)C2)cc1OC (centres undefined),11,·,-8,-21,-6,-3,0,4,
COC(=O)C1=C(C)N(CCCC(=O)O)C(=O)NC1c1ccccc1OS(=O)(=O)c1ccccc1[N+](=O)[O-] (centres undefined),-12,i,·,-11,1,·,0,2,
O=C(CN1C(=O)c2ccccc2C1=O)N(CCO)Cc1ccccc1,5,i,5,15,1,0,-2,1,
CC(C)Oc1ccc(CC(=O)NNC(=S)Nc2ccccc2)cc1,-13,i,13,-20,-15,-7,-6,-8,
COc1ccc2sc(NC(=O)NC(=O)c3c(Cl)cccc3Cl)nc2c1,·,i,9,-4,11,0,-1,-3,

# Screens: PubChem BioAssay, several laboratories

# An excerpt (hit frequency here may not be typical).
